Screening data deposited in PubChem BioAssay by Broad Institute.
UUG fidelity: alters start codon recognition fidelity in yeast; S. cerevisiae UUG-firefly luciferase reporter, luminescence/redox ratio; activity score, % at 18.7 µM; 350,000 tested, 0.13% active;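 active means replicate mean at a twofold rise or more, about +100% in these data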;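 further: firefly luciferase made from a UUG start codon reports start codon fidelity; reporter light over untreated wells divided by growth signal over untreated wells; some hits fall short of that in this replicate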
Env fusion inh: inhibitors of HIV Env-mediated cell fusion. HeLa-JRFL Env/CEM21 cell fusion, luciferase. inhibition, % at 12.3 µM. 360,000 tested, 1.1% active;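 active means mean replicate inhibition score of at least 50 and every replicate individually at or above 50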;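 further: 0% = plate neutral controls and 100% = maraviroc near 300 nM; one replicate is shown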
CSC inhib: blocks cancer stem cells; cancer stem cell-like cells viability, luminescence; inhibition, % at 7.5 µM; 300,000 tested, 1.1% active; AID 2717;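 active means mean at 75% or more and at least half the replicates too; tested in HMLE shEcad cells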;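 further: 0% = median of negative and 100% = median of positive control wells; the first replicate is given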
Starred values were filed as active, the others as inactive; . = no result given; [ ] = dose if it differs, or a comment.

SMILES | UUG fidelity | Env fusion inh | CSC inhib
COCC(=O)N1CCCCN2[C@H](C1)[C@@H](c1ccc(-c3ccccc3)cc1)[C@@H]2CO | -1.2 | . | .
C[C@@H]1CN([C@@H](C)CO)C(=O)c2c(c3ccccc3n2C)-c2ccccc2CO[C@@H]1CN(C)C(=O)c1ccc(F)cc1 | 7.9 | . | .
N#CC1(NC(=O)CSc2nnc(Cc3ccccc3)o2)CCCCC1 | 4.7 | . | -8.6
CCOc1ccccc1OCC(=O)NN=C1CCCC(=O)C1 | -3.4 | . | 0.8
Cn1c2ccccc2c(=O)c2cc(C#Cc3cccc(N)c3)ccc21 | -17.0 | . | 49.9
COc1ccc(NC(=O)c2cc3ccccc3o2)cc1S(=O)(=O)N1CCCCC1 | -3.4 | . | -13.5
CC(CNC(=O)COC(=O)c1cccs1)c1ccccc1 (stereo not drawn) | -15.1 | . | 6.0
CCCN(CC(=O)Nc1ccc(F)c(F)c1F)C(=O)c1ccc(N2CCCC2=O)cc1 | 11.5 | . | -5.6
CCCCc1cc2ccccc2c(OCCN(C)C)n1 | -12.5 | . | -7.2
CCC(=O)N1C[C@H](C)[C@@H](OC)CN(C)C(=O)c2ccc(NC(=O)c3ccccc3)cc2OC[C@H]1C | . | -2.3[16.7 µM] | .
O=C(C1=C[C@H](C2CCCCC2)C[C@H](OCc2ccc(CO)cc2)O1)N1CCCC1 | . | -11.9[16.7 µM] | .
COCC(=O)Nc1ccc2c(c1)C(=O)N(C)C[C@H](OC)[C@H](C)CN(Cc1ccccn1)[C@H](C)CO2 | . | -3.3[16.7 µM] | .
C[C@@H]1CN([C@H](C)CO)C(=O)c2ccccc2-c2ccccc2CO[C@H]1CN(C)C(=O)[C@@H]1CCCN1C | . | -6.6[16.7 µM] | .
COc1cccc(C(=O)Nc2ccc3c(c2)C(=O)N(C)[C@@H]2CC[C@H](CC(=O)NCC(F)(F)F)O[C@@H]2CO3)c1 | . | -6.9[16.7 µM] | .
O=C(NC1CCC1)[C@H]1[C@H](CO)[C@H]2Cn3c(cccc3=O)[C@H]2N1CCc1ccccc1 | . | 2.2[16.7 µM] | .
COc1ccc(S(=O)(=O)N(C)C[C@@H]2Oc3c(cccc3N(C)C)C(=O)N([C@@H](C)CO)C[C@@H]2C)cc1 | . | -2.3[16.7 µM] | .
O=C(C[C@@H]1CC[C@H]2[C@@H](COC[C@H](O)CN2S(=O)(=O)c2cccc(F)c2)O1)NCc1ccncn1 | . | 2.3[16.7 µM] | .
C[C@H]1CN([C@@H](C)CO)C(=O)c2c(c3ccccc3n2C)-c2ccccc2CO[C@H]1CN(C)Cc1cccc(C(=O)O)c1 | . | 5.4[16.7 µM] | .
CCCCCCCCN1C(=O)[C@@H](CC(=O)N2CCSCC2)C[C@@]2(C(=O)OC)C1=C[C@H](C1CCCC1)O[C@@H]2C | . | 12.8 | .
COc1ccccc1CNC(=O)C[C@@H]1C[C@H]2c3cc(NC(=O)CN(C)C)ccc3O[C@H]2[C@H](CO)O1 | . | 0.8[16.7 µM] | .
C[C@H](CO)N1C[C@H](C)[C@H](CN(C)Cc2ccc(C(=O)O)cc2)Oc2ccc(NS(=O)(=O)c3ccccc3)cc2CC1=O | . | 2.5[16.7 µM] | .
C[C@@H]1CN([C@@H](C)CO)C(=O)Cc2cc(NS(C)(=O)=O)ccc2O[C@H]1CN(C)C(=O)Nc1ccc(C(F)(F)F)cc1 | . | 3.1[16.7 µM] | .
COc1ccc2c(c1)[C@@H](NC(=O)c1ccncc1)[C@H](C)[C@H]2c1ccccc1 | . | -4.0 | .
Cc1ccc(Cl)cc1NC(=O)OCCN(C)C(=O)Nc1cc(Cl)ccc1C | . | 30.6 | .
CCC(=O)Nc1ccc2c(c1)C(=O)N(C)C[C@H](OC)[C@H](C)CN(Cc1ccncc1)[C@H](C)CO2 | . | -29.2[16.7 µM] | .
CCCCCCCCN1C(=O)[C@@H](CC(=O)N2CCC(c3ccccc3)CC2)C[C@@]2(C(=O)OC)C1=C[C@H](C(C)(C)C)O[C@@H]2C | . | -15.7 | .
C[C@H]1CN([C@@H](C)CO)C(=O)c2cc(-c3cccc(F)c3)cnc2O[C@H]1CN(C)C(=O)C1CC1 | . | 13.4[16.7 µM] | .
C=C1[C@@H](C)CN[C@@H]1CCO | . | 5.6 | .
CC(C)C[C@H]1COCn2nncc2CC[C@@H](Cc2ccccc2)C(=O)N1 | . | 65.6*[16.7 µM] | .
CO[C@H]1CN(C)C(=O)c2cc(NC(=O)NC3CCCCC3)ccc2OC[C@H](C)N(CCc2ccccc2)C[C@@H]1C | . | 46.8[16.7 µM] | .
Cc1noc(C)c1S(=O)(=O)Nc1ccc2c(c1)CC(=O)N([C@H](C)CO)C[C@H](C)[C@@H](CN(C)Cc1ccc(C(=O)O)cc1)O2 | . | -8.6[16.7 µM] | .
COc1ccccc1NC(=O)Nc1ccc2c(c1)C(=O)N(C)C[C@H](OC)[C@H](C)CN[C@@H](C)CO2 | . | -19.9[16.7 µM] | .
C[C@H]1CCCCO[C@H](CN(C)CC2CC2)[C@@H](C)CN([C@@H](C)CO)C(=O)c2cc(NS(C)(=O)=O)ccc2O1 | . | 12.8[16.7 µM] | .
CO[C@H]1CN(C)C(=O)c2ccc(NC(=O)Nc3ccccc3Cl)cc2OC[C@@H](C)NC[C@H]1C | . | 14.6[16.7 µM] | .
C[C@@H]1CN([C@H](C)CO)C(=O)c2cc(NC(=O)Nc3ccc(C(F)(F)F)cc3)ccc2O[C@@H]1CN(C)S(=O)(=O)c1ccccc1 | . | -10.4[16.7 µM] | .
COc1ccc2c3c(n(C)c2c1)[C@@H](CO)N(S(C)(=O)=O)CC31CCN(CC2CC2)CC1 | . | 3.0[16.7 µM] | .
COc1ccc(-c2ncn(CCc3ccccc3OC)c2C(C)C)cc1 | . | -3.5 | .
CO[C@@H]1CN(C)C(=O)c2cc(NC(=O)CN(C)C)ccc2OC[C@@H](C)N(Cc2ccccc2F)C[C@H]1C | . | 11.9[16.7 µM] | .
C[C@@H]1CN([C@H](C)CO)C(=O)c2cc(NC(=O)Cc3cn(C)c4ccccc34)ccc2O[C@@H]1CN(C)Cc1ccncc1 | . | 10.0[16.7 µM] | .
C[C@@H]1CN([C@H](C)CO)C(=O)c2ccccc2-c2ccccc2CO[C@@H]1CN(C)S(=O)(=O)c1ccsc1 | . | 9.0[16.7 µM] | .
C=CCN=C1NC(CCc2ccccc2)C(C(=O)OC)=C(C)N1Cc1cccc(C(F)(F)F)c1 (stereo not drawn) | . | 25.4 | .
Fc1ccc2cc(C3=CCCCC3)ncc2c1 | . | 0.9 | .
COC(=O)[C@]12C[C@H](CC(=O)NCc3ccc(OC)c(OC)c3)C(=O)N(CCC3=CCCCC3)C1=C[C@H](COCc1ccccc1)O[C@@H]2C | . | -12.8 | .
C[C@@H]1CN([C@@H](C)CO)C(=O)Cc2cc(NC(=O)Nc3ccc(C(F)(F)F)cc3)ccc2O[C@H]1CN(C)S(C)(=O)=O | . | -7.4[16.7 µM] | .
Cc1cccc(CN(C)C[C@H]2OCc3cn(nn3)CCCC(=O)N([C@H](C)CO)C[C@H]2C)c1 | . | -13.0[16.7 µM] | .
CC(C)(C)OC(=O)COc1cccc(C(=O)CCN2CCOCC2)c1 | . | -1.8[16.7 µM] | .
C[C@@H]1CCCCO[C@@H](CN(C)CC2CCCCC2)[C@H](C)CN([C@H](C)CO)C(=O)c2cc(NC(=O)c3ccncc3)ccc2O1 | . | 15.3[16.7 µM] | .
O=C(C[C@H]1C[C@@H]2c3cc(NC(=O)C4CCOCC4)ccc3O[C@@H]2[C@H](CO)O1)NCC(F)(F)F | . | -2.1[16.7 µM] | .
CC(C)NC(=O)Nc1ccc2c(c1)CC(=O)N([C@@H](C)CO)C[C@@H](C)[C@@H](CN(C)Cc1ccc3c(c1)OCO3)O2 | . | -7.3[16.7 µM] | .
CO[C@@H]1CN(C)C(=O)c2cc(NS(=O)(=O)c3ccccc3F)ccc2OC[C@@H](C)N(S(C)(=O)=O)C[C@H]1C | . | -14.7[16.7 µM] | .
CCNC(=O)C[C@@H]1CC[C@@H]2[C@H](COC[C@H](O)CN2C(=O)c2ccccn2)O1 | . | -10.4[16.7 µM] | .
CO[C@@H]1CN(C)C(=O)c2cc(NC(=O)c3ccc(Oc4ccccc4)cc3)ccc2OC[C@@H](C)NC[C@H]1C | . | 26.0[16.7 µM] | .
CCCC(=O)Nc1ccc2c(c1)C(=O)N(C)C[C@H](OC)[C@H](C)CN(C(=O)CC1CC1)[C@@H](C)CO2 | . | -22.4[16.7 µM] | .
CO[C@H]1CC[C@H]2CCOc3c(C#N)cccc3C(=O)N(C)[C@@H](C)C(=O)N(C)C[C@@H]1O2 | . | -4.8[16.7 µM] | .
COC(=O)C1=C(C)N(C)C(=NCc2cccc(C(F)(F)F)c2)NC1c1ccc(F)cc1 (stereo not drawn) | . | -2.7 | .
C[C@@H]1CN([C@@H](C)CO)C(=O)c2cc(NC(=O)C3CCCCC3)ccc2O[C@H]1CN(C)C(=O)NC1CCCCC1 | . | -31.7[16.7 µM] | .
CN(C)CC(=O)Nc1ccc2c(c1)[C@H]1C[C@@H](CC(=O)NC3CCCCC3)O[C@H](CO)[C@H]1O2 | . | -12.2[16.7 µM] | .
CCC(=O)N1C[C@H](C)[C@@H](OC)CN(C)C(=O)c2ccc(NC(=O)NC(C)C)cc2OC[C@@H]1C | . | -7.1[16.7 µM] | .
CCCCc1c(-c2ccccc2OC)ncn1Cc1c(Cl)cccc1Cl | . | 0.3 | .
NC(=O)NCC#Cc1ccc2c(c1)[C@]1(C(=O)N2)[C@H](c2ccccc2OCCO)N2[C@H](c3ccccc3)[C@H](c3ccccc3)OC(=O)[C@H]2[C@@H]1C(=O)N1CCN(c2ncccn2)CC1 | . | -4.2[16.7 µM] | .

Next part.
SMILES | UUG fidelity | Env fusion inh | CSC inhib
CCCN(C)C[C@@H]1Oc2cc(C#CCC3CCCC3)ccc2S(=O)(=O)N([C@@H](C)CO)C[C@@H]1C | . | -16.3[16.7 µM] | .
COC(=O)C[C@H]1CC[C@@H]2[C@H](COC[C@H](O)CN2S(=O)(=O)c2cn(C)cn2)O1 | . | 21.0[16.7 µM] | .
CO[C@@H]1CC[C@@H]2CCN(C)C(=O)[C@@H](C)CN(C)C(=O)c3cc(C#N)ccc3OC[C@H]1O2 | . | -3.4[16.7 µM] | .
O=C(NC(C(=O)N1CCCC1C(=O)NC1CCCC1)c1ccccc1)c1cccs1 (stereo not drawn) | . | 27.4 | .
C/C=C/c1ccc([C@H]2[C@@H](CO)N(C(=O)C3CCCC3)C23CN(C(=O)NC(C)C)C3)cc1 | . | -6.5[16.7 µM] | .
Cc1noc(C)c1NC(=O)Nc1ccc2c(c1)C(=O)N([C@@H](C)CO)C[C@H](C)[C@@H](CN(C)S(=O)(=O)c1ccc(Cl)cc1)OCCCC[C@@H](C)O2 | . | -53.5[16.7 µM] | .
Cc1noc(C)c1S(=O)(=O)Nc1ccc2c(c1)C(=O)N([C@H](C)CO)C[C@H](C)[C@H](CN(C)Cc1ccc(C(F)(F)F)cc1)OCCCC[C@@H](C)O2 | . | -18.4[16.7 µM] | .
O=C(NCC(F)(F)F)[C@@H]1[C@@H](CO)[C@@H]2Cn3c(ccc(-c4ccncc4)c3=O)[C@@H]2N1Cc1ccncc1 | . | -0.1[16.7 µM] | .
C[C@@H]1CN([C@H](C)CO)C(=O)Cc2cc(NS(=O)(=O)c3ccc(F)cc3)ccc2O[C@H]1CN(C)C(=O)Nc1ccc2c(c1)OCO2 | . | 18.7[16.7 µM] | .

13 entries out of the list, ordered by heavy-atom count, descending.
SMILES | UUG fidelity | Env fusion inh | CSC inhib
COC(=O)[C@]12C[C@H](CC(=O)NCc3ccc(OC)c(OC)c3)C(=O)N(CCC3=CCCCC3)C1=C[C@H](COCc1ccccc1)O[C@@H]2C | . | -12.8 | .
C[C@H](CO)N1C[C@H](C)[C@H](CN(C)Cc2ccc(C(=O)O)cc2)Oc2ccc(NS(=O)(=O)c3ccccc3)cc2CC1=O | . | 2.5[16.7 µM] | .
C[C@@H]1CN([C@@H](C)CO)C(=O)c2cc(NC(=O)C3CCCCC3)ccc2O[C@H]1CN(C)C(=O)NC1CCCCC1 | . | -31.7[16.7 µM] | .
COc1cccc(C(=O)Nc2ccc3c(c2)C(=O)N(C)[C@@H]2CC[C@H](CC(=O)NCC(F)(F)F)O[C@@H]2CO3)c1 | . | -6.9[16.7 µM] | .
C[C@H]1CCCCO[C@H](CN(C)CC2CC2)[C@@H](C)CN([C@@H](C)CO)C(=O)c2cc(NS(C)(=O)=O)ccc2O1 | . | 12.8[16.7 µM] | .
C=CCN=C1NC(CCc2ccccc2)C(C(=O)OC)=C(C)N1Cc1cccc(C(F)(F)F)c1 (stereo not drawn) | . | 25.4 | .
O=C(C[C@H]1C[C@@H]2c3cc(NC(=O)C4CCOCC4)ccc3O[C@@H]2[C@H](CO)O1)NCC(F)(F)F | . | -2.1[16.7 µM] | .
CCCN(CC(=O)Nc1ccc(F)c(F)c1F)C(=O)c1ccc(N2CCCC2=O)cc1 | 11.5 | . | -5.6
CO[C@H]1CC[C@H]2CCOc3c(C#N)cccc3C(=O)N(C)[C@@H](C)C(=O)N(C)C[C@@H]1O2 | . | -4.8[16.7 µM] | .
COc1ccc(NC(=O)c2cc3ccccc3o2)cc1S(=O)(=O)N1CCCCC1 | -3.4 | . | -13.5
COC(=O)C[C@H]1CC[C@@H]2[C@H](COC[C@H](O)CN2S(=O)(=O)c2cn(C)cn2)O1 | . | 21.0[16.7 µM] | .
CC(C)(C)OC(=O)COc1cccc(C(=O)CCN2CCOCC2)c1 | . | -1.8[16.7 µM] | .
CCCCc1cc2ccccc2c(OCCN(C)C)n1 | -12.5 | . | -7.2

Not all compounds are listed; rates above refer to the full screens.
